Ecoli growth: E. coli growth inhibition, primary screen, OD600; Escherichia coli growth, 23 h; active compounds read low; OD600 absorbance (concentration not given with the values); hit rate 0.21% among 330,000;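 active means OD600 absorbance below the run mean of sample wells minus 3.6 SD, in any replicate, cut at about 0.56 in these data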;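 further: stock transfer was 300 nL into about 60 µL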
UCH37 inh: inhibitors of human UCH37 deubiquitinase, primary screen, biochemical, Ub-AMC cleavage, fluorescence. Ubiquitin carboxyl-terminal hydrolase isozyme L5 (Homo sapiens), Q9Y5K5. purified proteasome/UCH37. inhibition, % (concentration not given with the values). hit rate 0.33% among 330,000. AID 588478, 2011;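 active means mean of two replicates above 20%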;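 further: 0% = compound-free wells with enzyme and 100% = wells lacking proteasome; stock transfer was 100 nL into about 20 µL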
Target sequence (Q9Y5K5 whole entry, looked up): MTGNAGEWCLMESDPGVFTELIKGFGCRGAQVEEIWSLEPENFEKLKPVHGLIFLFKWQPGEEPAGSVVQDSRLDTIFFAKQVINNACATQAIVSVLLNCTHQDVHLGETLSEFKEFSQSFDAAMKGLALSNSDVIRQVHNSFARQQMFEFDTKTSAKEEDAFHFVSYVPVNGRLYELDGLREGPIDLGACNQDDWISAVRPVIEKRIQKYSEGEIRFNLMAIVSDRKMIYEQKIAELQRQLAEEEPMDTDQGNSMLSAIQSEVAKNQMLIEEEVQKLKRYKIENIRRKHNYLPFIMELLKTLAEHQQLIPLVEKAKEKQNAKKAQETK
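Signal – fluorescence, ex 355 nm, em 460 nm · System – Proteasome-bound UCH37 · Input – 0.15 nM proteasome as dispensed · Timing – 30 min preincubation with enzyme, 25 min cleavage at room temperature · Read-out basis – percent inhibition of cleavage signal versus uninhibited and no-proteasome wells · Medium – Tris-HCl pH 7.4 with ATP-MgCl2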
* marks the source's active call; other numbers are inactive results; & = joins results of further samples.

Molecule | Ecoli growth | UCH37 inh
Cn1c(=O)c2[nH]c(NN=C(C#N)C(N)=O)nc2n(C)c1=O | 0.59 | -59
CCc1cc(C(Cc2ccccn2)=NO)c(O)cc1O | 0.62 | 1.7
O=C1Nc2ccccc2C1=NN=Cc1ccc(-c2ccc([N+](=O)[O-])cc2)o1 | 0.61 | 10
COc1cc(C=NNc2nc(Nc3ccc(C)cc3)nc(-n3nc(C)cc3C)n2)cc(OC)c1OC | 0.69 | -20
Cc1ccc(C=Nn2c(COc3ccccc3)n[nH]c2=S)o1 | 0.72 | 3.1
S=C(NCc1ccco1)NN=Cc1cccnc1 | 0.67 | 10
Cc1ccc(S(=O)(=O)N2CCC(C(=O)NN=Cc3ccccc3[N+](=O)[O-])CC2)cc1 | 0.68 | 4.9
C=C(C)[C@H]1CC=C(C)C(=NNC(=O)CNc2ccccc2OC)C1 | 0.69 | 3.5
Cc1ccsc1C=Nn1c(-c2ccncc2)n[nH]c1=S | 0.72 | 0.4
C(=NNc1nc(Nc2ccccc2)nc(N2CCOCC2)n1)c1c[nH]c2ccccc12 | 0.67 | 0.7
Cc1ccccc1C=NNc1nc2ccccc2[nH]1 | 0.62 | -9.2
Nn1cnnc1NN=Cc1cccc(Cl)c1Cl | 0.65 | 8.4
O=C(CCNc1n[nH]c(=O)[nH]c1=O)NN=Cc1ccc(Cl)cc1 | 0.69 | 1.5
COc1ccc(C=NNC(N)=S)cc1OC(=O)c1ccccc1 | 0.72 | 4.2
CCC(=NNC(=O)c1nnn(-c2nonc2N)c1CN(C)c1ccccc1)c1ccccc1 | 0.72 | 4.1
Cc1ccc(-c2cc(C(=O)NN=C/C(Br)=C/c3ccccc3)n[nH]2)o1 | 0.6 | 3.8
O=C(CSCc1ccc(Cl)cc1)NN=Cc1c(Cl)cccc1Cl | 0.67 | 0.7
COc1ccc(C(C)=NNC(=O)CNC(=O)c2ccco2)c(OC)c1 | 0.66 | -1.7
O=[N+]([O-])c1ccc(C=NNc2ccccn2)cc1 | 0.66 | 6.2
CSc1nccc(NN=Cc2ccccc2)n1 | 0.7 | 4.6
CC(CC(=O)Nc1cccc(Cl)c1Cl)=NNC(=O)C(=O)N1CCCC1 | 0.66 | 0.3
Cc1ccc(C=NNC(=O)CN2CCN(Cc3ccccc3)CC2)o1 | 0.61 | 4.2
O=C(CC=NOCc1c(Cl)cccc1Cl)c1ccccc1 | 0.68 | 7.3
COc1ccc(C)cc1N(CC(=O)NN=Cc1ccccc1C(=O)O)S(=O)(=O)c1ccccc1 | 0.64 | 3.4
COc1cccc(C=NNC(=S)NC2CC3CCC2C3)c1OC (stereo not given) | 0.68 | 2.4

The list goes on, overlapping the part above by five compounds.
Molecule | Ecoli growth | UCH37 inh
CC(CC(=O)Nc1cccc(Cl)c1Cl)=NNC(=O)C(=O)N1CCCC1 | 0.66 | 0.3
Cc1ccc(C=NNC(=O)CN2CCN(Cc3ccccc3)CC2)o1 | 0.61 | 4.2
O=C(CC=NOCc1c(Cl)cccc1Cl)c1ccccc1 | 0.68 | 7.3
COc1ccc(C)cc1N(CC(=O)NN=Cc1ccccc1C(=O)O)S(=O)(=O)c1ccccc1 | 0.64 | 3.4
COc1cccc(C=NNC(=S)NC2CC3CCC2C3)c1OC (stereo not given) | 0.68 | 2.4
CCn1c(C)nc2cc(C(=O)NN=Cc3ccc(OC)cc3)ccc21 | 0.64 | 1.3
CC1=NNC(=O)C1CC(=O)NN=Cc1ccc(C)o1 (stereo not given) | 0.72 | 5.2
O=C(NCCCN1CCOCC1)C(=O)NN=Cc1ccc2c(c1)OCO2 | 0.7 | 11
C(=Nc1nc2ccccc2n1CCN1CCOCC1)c1cccs1 | 0.72 | -1.9
O=C(CNC(=O)c1cccs1)NN=Cc1cccc(Cl)c1 | 0.69 | 4.3
CC(C)(C)c1cc(C(=O)NN=Cc2ccccn2)n[nH]1 | 0.68 | -2.6
CCCCNC(=S)N(C)N=Cc1c(C)[nH]c2ccccc12 | 0.72 | -4.7
CCOc1ccc(NC(=O)C(=O)NN=Cc2cccnc2)cc1 | 0.67 | 3.0
COc1cc(C=NNc2ccc3ccccc3c2)ccc1OC(=O)c1ccco1 | 0.71 | -18
Cc1ccc(NCC(=O)NN=Cc2c[nH]c3ccccc23)cc1 | 0.69 | 5.1
COc1cc(C(C)=NNC(=O)C(O)(c2ccccc2)c2ccccc2)ccc1O | 0.68 | 1.5
O=C(NN=Cc1cccnc1)c1ccc(NC(=O)c2ccccc2Cl)cc1 | 0.68 | 3.3
C(=Nn1cncn1)c1ccc(N2CCOCC2)cc1 | 0.65 | -57
FC(F)(F)c1ccc(C=Nn2c(COc3ccccc3)n[nH]c2=S)cc1 | 0.69 | 3.5
CCC1CCCC1=NNC(=O)c1ccccc1Cl (stereo not given) | 0.66 | 5.5
N#CC(=NNc1cccc(C(F)(F)F)c1)C(=O)c1csc(-c2cccnc2)n1 | 0.69 | 11
Cc1nccn1CC(=O)NN=Cc1ccccc1O | 0.67 | -46
CC(=O)Nc1ccc(NC(=O)CC(C)=NNC(=O)COc2cc(C)c(Br)cc2Br)cc1 | 0.7 | 7.0
CCOC(=O)Cc1cc(=O)[nH]c(N=C(N)Nc2ccc(C)c(C)c2)n1 | 0.67 | 13
Cc1ccc(SCc2c(C(=O)NN=Cc3ccoc3)nnn2-c2nonc2N)cc1 | 0.68 | 1.6
Cc1ccc(S(=O)(=O)NN=c2sc3ccccc3n2C)cc1 | 0.74 | 1.0
CC(C)=CCC(C)(C)C=NNC(N)=O | 0.7 | 2.4
Cc1ccc2cc(C=NNC(=O)c3ccc(F)cc3)c(Cl)nc2c1 | 0.7 | 3.4
O=C(O)c1ccc(NC2=CC(=NS(=O)(=O)c3ccccc3)c3ccccc3C2=O)cc1 | 0.68 | 95*
COc1ccc(C=NNC(=S)NCC2CCCO2)cc1 (stereo not given) | 0.69 | 7.4
CSCC[C@H](NC(=O)OC(C)(C)C)C(=O)NN=Cc1cccc2nccnc12 | 0.69 | 4.7
Cc1nnc(C)n1N=Cc1cccc([N+](=O)[O-])c1 | 0.69 | 2.5
Cc1ccc(OCC(=O)NN=Cc2cccn2C)cc1 | 0.72 | 2.9
CC(CCc1ccco1)=NNC(=O)CNc1cccc2ccccc12 | 0.71 | -66
CC(=NNC(=O)c1ccc(CSc2nc(C)cc(C)n2)cc1)c1ccco1 | 0.71 | 2.2
CC1(C)CC(=O)C(C=Nn2c(C(F)(F)F)nc3ccccc3c2=O)=C(O)C1 | 0.67 | 2.2
CCOC(=O)C(=O)NN=Cc1cccc(Br)c1 | 0.71 | -0.4
Cc1ccc(NC(=O)CON=Cc2ccc(N(C)C)cc2)cc1 | 0.68 | -2.0
Cc1ccsc1C=c1sc2ncnn2c1=O | 0.73 | 9.0
Cc1ccc(S(=O)(=O)NN=Cc2ccc3c(c2)OCO3)c(C)c1 | 0.67 | 1.6
CC(=NOC(=O)CC(C)C)c1cc(-c2ccc(Cl)cc2)no1 | 0.68 | -0.2
COc1ccc(CSCC(=O)NN=Cc2ccccc2O)cc1 | 0.67 | -9.2
CC(=NNC(=O)c1ccc(-n2cnnn2)cc1)c1ccc(C)cc1 | 0.71 | 4.8
CC(C)n1cc(C=NNc2ccc(C(=O)O)cc2)c2ccccc21 | 0.66 | -30
O=S(=O)(N=Cc1ccccc1O)c1cccs1 | 0.72 | -1.6
CCN(CC)c1ccc(C=Nn2c(C)nc3ccccc3c2=O)cc1 | 0.65 | -0.6
Nc1ccc(C(=O)NN=Cc2c[nH]c3ccccc23)cc1 | 0.65 | 8.4
CCOc1ccccc1C=NNc1nc2ccccc2o1 | 0.71 | -3.6
CC1(C)CC(=O)CC(=NNC(=O)COc2ccc3ccccc3c2Br)C1 | 0.73 | 2.3
O=C(Cc1cc(=O)[nH][nH]1)NN=C/C=C/c1ccccc1 | 0.62&0.73 | 5.1&0.3
COc1ccc2c(c1)c(C(=O)NN=Cc1ccc(O)c(O)c1)c(C)n2C | 0.64 | 5.6
C=CCN1C(=O)C(Cc2ccc(OC)cc2)SC1=NN=Cc1ccco1 (stereo not given) | 0.73 | 5.2
COc1ccc(C=NNc2cn[nH]c(=O)c2Cl)cc1 | 0.69 | 11
NC(N)=NN=Cc1ccccc1OC(F)F | 0.7 | 7.7
COc1ccc(OC)c(C=NNC(=O)c2ccc(-c3ccccc3)cc2)c1 | 0.71 | -230

The results go on:
Molecule | Ecoli growth | UCH37 inh
CCCCc1n[nH]c2c1C(=NOCC)CC(C)(C)C2 | 0.67 | 2.3
O=C(NN=Cc1ccc(N2CCOCC2)cc1)c1ccccc1OCCOc1ccccc1 | 0.67 | -304
OCC(O)C=NNc1nc2ccccc2s1 (stereo not given) | 0.69 | 5.8
CC(=NNC(=O)COc1ccccc1)c1ccc(O)cc1 | 0.65 | -0.6
CCN(CC)c1ccc(C=NNc2nn[nH]n2)cc1 | 0.65 | -25
NC(=O)c1cc2ccccc2oc1=NNC(=O)c1cccs1 | 0.64 | 6.8
Cc1cc(C(=O)NN=Cc2ccc(N3CCOCC3)cc2)c(C)o1 | 0.66 | -132
COc1ccc(C=NNC(=O)C2C(=O)NCC2c2ccccc2)cc1O (stereo not given) | 0.8 | 3.1
Cn1c(C(C#N)=C(O)c2ccc(S(=O)(=O)N3CCCCC3)cc2)nc2ccccc21 | 0.66 | -407
O=C(CNC(=O)c1ccccc1C(F)(F)F)NN=Cc1cccs1 | 0.71 | 2.2
COc1ccc(-n2c(C)cc(C=NNc3nc(N4CCOCC4)nc(N4CCOCC4)n3)c2C)cc1 | 0.7 | -0.2
S=c1[nH]nc(-c2cccs2)n1N=Cc1cccs1 | 0.69 | 7.3
Cc1ccc(S(=O)(=O)Oc2ccccc2C=NNC(=O)c2c(Cl)cnn2C)cc1 | 0.69 | 6.2
C[C@H](NC(=O)OC(C)(C)C)C(=O)NN=Cc1ccc2nccnc2c1 | 0.7 | 7.3
CCc1nc2ccccc2c(=O)n1N=Cc1ccc(Cl)cc1 | 0.68 | 6.2
COc1ccc(Br)cc1C=Nn1c(COc2ccccc2)n[nH]c1=S | 0.7 | 3.7
COc1ccc(/C=C(/NC(=O)c2ccccc2)C(=O)NN=Cc2sccc2C)cc1 | 0.7 | 3.1
CN(C)C=Nc1ncc(C(=O)c2ccc(Cl)cc2Cl)s1 | 0.71 | -0.3
Cc1ccc(C=NNC(=O)c2nc3nc(C)cc(C)n3n2)cc1 | 0.68 | 4.6
CC(=NNC(=O)c1ccccn1)c1ccc(O)cc1 | 0.69 | 5.3
O=C(NN=Cc1cccnc1)C12CC3CC(CC(C3)C1)C2 | 0.68 | -3.9
CC1=C(C)C(=NOS(=O)(=O)c2ccccc2)C=CC1=O | 0.73 | 5.1
Cc1cccc(OCC(=O)NN=Cc2sc(=O)n(Cc3cccc(C(=O)O)c3)c2Cl)c1 | 0.68 | 8.8
COc1ccc(-c2nn(-c3ccccc3)cc2C(=O)NN=Cc2ccc([N+](=O)[O-])o2)cc1 | 0.71 | 7.2
COc1cccc(NC(=O)CC2SC(=NS(=O)(=O)c3ccccc3)N(c3ccccc3)C2=O)c1 (stereo not given) | 0.72 | 3.3
O=C(NN=Cc1ccco1)c1cc(-c2cccs2)[nH]n1 | 0.68 | 3.2
CC(C)(C)c1ccc(C(=O)NCC(=O)NN=Cc2cccs2)cc1 | 0.7 | 3.0
CC(CCc1ccc2c(c1)OCO2)=NNC(=O)c1ccccc1Cl | 0.66 | -2.2
C=CCN1C(=O)C(=c2sc3nc(=O)c(Cc4ccccc4Cl)nn3c2=O)c2ccccc21 | 0.62 | 7.7
CC(CCC1CC(C)OC1=O)=NNc1nc(-c2ccccc2)cs1 (stereo not given) | 0.69 | 3.7
Cc1ccccc1OCC(=O)NN=C/C=C/c1ccccc1 | 0.68 | 6.3
Cc1ccc(C=NNC(=O)c2csc(C)c2)o1 | 0.71 | 6.4
Cc1cc(C(=O)NN=Cc2cc([N+](=O)[O-])cc(C)c2O)n[nH]1 | 0.7 | 8.7
Cc1cc(NN=Cc2ccccc2O)nc(N2CCOCC2)n1 | 0.62 | 4.9
CCNc1nc(NCC)nc(NN=Cc2ccc(Br)cc2)n1 | 0.64 | 1.4
CC(CC(=O)Nc1cccc(F)c1)=NNC(=O)c1ccncc1 | 0.71 | 2.2
Nc1nonc1-n1nnc(C(=O)NN=Cc2cccc(Cl)c2)c1CN1CCOCC1 | 0.68 | 5.5
Oc1ccc(C=Nn2cc(-c3ccccc3)[nH]c2=S)cc1 | 0.69 | -1.6
COc1ccc(C=NNC(=O)c2ccc([N+](=O)[O-])c(C)c2)cc1COc1ccccc1C(N)=O | 0.7 | 1.3

Ordered by the number under UCH37 inh (high to low): three of the compounds above
SMILES,UCH37 inh
Cc1ccc(C=NNC(=O)c2csc(C)c2)o1,6.4
CCNc1nc(NCC)nc(NN=Cc2ccc(Br)cc2)n1,1.4
COc1ccc(C=NNC(=O)c2ccc([N+](=O)[O-])c(C)c2)cc1COc1ccccc1C(N)=O,1.3

This is a subset (hit frequency here may not be typical).
